From PubChem BioAssay
BJeLR viability: MLPCN primary cell-based screen for lethality selective to Ras in HRASV12 cells. BJeLR (HRASV12) viability, CellTiter-Glo ATP luminescence, 48 h; reference of the scale not given here. inhibition, % (concentration not given with the values). 0.17% of 300,000 active. AID 1554, 2009;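 active = replicate mean above 50%; inconclusive = above 50% but judged a plate artefact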;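 note: 50 nL library stock added to about 25 µL; numbers are from one replicate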
ugtP null kill: growth inhibition of ugtP-null S. aureus, primary screen, RN4220 ugtP deletion, OD600 | 16 h; some inactives read as strong as hits | growth inhibition, % (concentration not given with the values) | 0.54% of 330,000 active | AID 1259309, 2017;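 active = z-score under -3 and OD600 up to 0.15 on both plates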;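 note: plate controls were untreated wells for no effect and antibiotic for full effect; wells of about 80 µL received 100 nL stock; the first replicate is given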
Mtb hypoxia rep: PubChem AID 1159583; M. tuberculosis hypoxia-regulated fluorescent reporter, fluorescence; fluorescence inhibition, % (concentration not given with the values); 0.1% of 300,000 active;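 active = 35 to 45% if threefold the growth effect, above 45% if 1.5-fold the growth effect; inactive = the rest, general growth blockers included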;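 note: wells of about 50 µL received 100 nL stock; 0% = vehicle wells and 100% = reference inhibitor wells; whole bacteria with a GFP reporter of the hypoxia response; strong numbers were not always called active; many hits fall short of the cut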
PrP 5UTR inh: inhibition of PrP 5' UTR reporter expression; AID 488862, 2010; cell-based PrP 5' UTR mRNA reporter, plate reader; inhibition, % (test concentration not listed); 0.35% of 340,000 active;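 active = every replicate at 50% or more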;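 note: 0 = median of the neutral control wells; tested in H4 reporter cells; numbers are from one replicate; inactives centre near -14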
RN4220 kill: growth inhibition of S. aureus RN4220, primary screen, OD600; 16 h; inhibition, % (no concentration beside the values); 0.33% of 330,000 active; AID 1259311, 2017;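 active = z-score of -3 or lower and OD600 up to 0.18 on both plates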;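 note: plate controls were untreated cells for no effect and reference antibiotic for full effect; stock transfer was 100 nL into about 80 µL; one replicate is shown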
Autofluor counter: flagged as autofluorescent in microsphere protease counterscreen; 3.1% of 360,000 active; fluorescence intensity (no concentration beside the values); compound autofluorescence counterscreen, microsphere flow cytometry; hits give high values; AID 624483;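 active = at least 3 SD above the mean of all compounds, about 16000 in these data; inconclusive = too few beads counted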;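 note: 100 nL of 1 mM stock went into each well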
Mtb hypoxia rep growth: recorded beside Mtb hypoxia rep, whose call it bears; growth inhibition, %; measured here: M. tuberculosis growth (absorbance);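 0% = vehicle and 100% = reference antibiotic; read after six days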
An asterisk follows results filed as active; ? = inconclusive; nt = not tested or not shown; & = joins results of further samples. An unsorted share of the library, and some 4% of all compounds hit somewhere here.

SMILES	BJeLR viability	ugtP null kill	Mtb hypoxia rep	Mtb hypoxia rep growth	PrP 5UTR inh	RN4220 kill	Autofluor counter
Cc1cc(C)cc(NC(=O)CCN2CC(C)OC(C)C2)c1 (stereo not given)	-3	1	-8	5	-27	1.5	7296
CCc1nnc(NC(=O)C2CCC(CNc3c(N4CCCCC4)c(=O)c3=O)CC2)s1 (stereo not given)	-1	-1	-13	11	-12	-1.4	3512
Cc1cc(C)c2nc(N=C(N)NC(=O)Nc3ccccc3)nc(C)c2c1	nt	-8	-7	2	nt	7.1	nt
COc1cc(Br)cc(/C=C/c2ccc3cccc(O)c3n2)c1OC	9	-3	-10	-2	4	19	3570
CN(N=Cc1cc(Br)cc(Br)c1O)c1cccc(C(F)(F)F)n1	nt	21	-3	10	nt	39	nt
CCCCCC(=O)NCc1c(C(F)(F)F)nn(C)c1N1CCOCC1	2	5	10	8	-28	7.6	4302
NC(=O)[C@H]1CC2(CC(c3cccc(NC(=O)[C@H]4CCC(=O)N4)c3)=NO2)CN1C(=O)c1ccccc1C(=O)c1ccccc1 (stereo not given in full)	11	nt	nt	nt	-17	nt	4098
CCOc1ccc(NC(=O)CN2C(=O)/C(=C3\SC(=S)N(C4CCS(=O)(=O)C4)C3=O)c3ccccc32)cc1 (stereo not given)	nt	8	-9	-8	-1	4.1	3393
CC(=O)NCCC(=O)Nc1cc(S(=O)(=O)N2CCOCC2)ccc1N1CCOCC1	1	7	2	12	-19	5.3	4469
CCN(CC)CCCNC(=O)c1cc2nc(-c3ccccc3)cc(C(F)(F)F)n2n1	-1	11	20	7	-11	-1.7	4037
COc1ccc2nc(N3CCCC(O)C3)c(C#N)cc2c1 (stereo not given)	12	5	8	8	-39	2.9	3964
Cc1cccc(NC(=S)NC2CCN(Cc3ccccc3)CC2)c1C	7	9	-9	1	-2	3.7	1925
CC(=O)C1=C(C)NC(=O)NC1c1cc(Br)ccc1OCC(N)=O (stereo not given)	-5	-2	nt	nt	-20	0.3	5080
O=C(COC(=O)Cn1cc(C(F)(F)F)ccc1=O)Nc1ccc(Br)cc1F	nt	7	1	4	-21	5.1	5440
Cc1cccc(N2CC(O)(c3cccs3)[N+]3=C2CCCCC3)c1 (stereo not given)	-3	17	5	11	-16	0.2	3269
O=c1[nH]c(O)c(N=Nc2ccc([N+](=O)[O-])cc2)c(=O)[nH]1	-14	8	-1	7	-8	0.4	3332
COc1cc(C=NNC(=O)C(N)=O)ccc1OCC(=O)N1C(C)CCCC1C (stereo not given)	nt	8	3	9	nt	1.1	nt
Cc1cccc(-c2n[nH]c(=S)n2/N=C/c2ccc(C)s2)c1	3	nt	nt	nt	-13	nt	2533
O=S(=O)(NCc1ccccn1)c1ccccc1	2	-2	14	18	-18	1.9	9058
Cn1c(CNC(=O)c2ccco2)nnc1SCC(=O)N1CCN(c2ccccc2)CC1	-10	0	-14	-2	-24	4.1	3823
Cc1nn(-c2ccccc2Cl)c2sc(C(=O)Nc3nnc(C4CC4)s3)cc12	-2	nt	nt	nt	-3	nt	2669
C/C(CC(=O)NC(C)(C)C)=N\NC(N)=S	-2	nt	nt	nt	6	nt	4657
C=CCSc1nnc(NC(=O)CSc2nc(CCC)cc(=O)[nH]2)s1	0	-12	nt	nt	-13	4.8	2119
COc1cc(Cc2cnc(N)nc2N)cc(OC)c1OC	6&8	100*	-1	0	-17&-2	98*	5344&5726
CC(C)(C)CC(=O)Nc1nnc(SCC(=O)Nc2ccccc2F)s1	1	5	5	5	-34	3.0	4421
O=C(c1cnccn1)N1CCCC(N2CCN(c3cccc(Cl)c3)CC2)C1 (stereo not given)	7	4	5	3	-15	-0.8	4706
COC(=O)C(C)N(C(=O)c1ccc(Cl)cc1)c1c(C)cccc1C (stereo not given)	2	2	7	5	-5	2.2	21162*
CCOc1ccccc1C=NNc1cc(C)nc2ccc(C)cc12	nt	7	9	-1	nt	4.9	nt
CC(=O)c1ccc(N2CCN(c3ncccn3)CC2)cc1	-11	-8	8	-5	-46	4.5	4147
CCOC(=O)c1c(NC(=O)C2c3ccccc3Oc3ccccc32)sc(C(=O)N(CC)CC)c1C	4	7	nt	nt	-15	-15	4536
Cc1cc(C)c(S(=O)(=O)n2c([N+](=O)[O-])cnc2C)cc1C	6	7	8	9	-26	6.4	2371
CCOc1ccc(NC(=O)c2ccc(OC)cc2)cc1	-7	1	-3	5	-25	1.4	4533
CC1=C(C(=O)OC2CCCCC2)C(c2ccccc2)NC(=O)N1 (stereo not given)	18	11	1	0	-11	2.7	3583
COC(=O)c1ccc(NC(=O)CCN2CCN(c3ccccc3)CC2)cc1	-5	nt	nt	nt	10	nt	4732
Nc1nc(SCC(=O)c2ccc(F)cc2)n[nH]1	3	2	0	0	-10	0.4	2554
O=C(OCC(=O)c1ccc[nH]1)c1cncc(Br)c1	nt	-2	9	5	-8	0.8	4081
CCNC(=O)COC(=O)c1csc2c1CCCC2	4	1	9	1	-14	3.9	2244
CCOC(=O)Cc1csc(NC(=O)c2ccc([N+](=O)[O-])cc2[N+](=O)[O-])n1	-20	21	3	13	-14	21	3764
O=C(Cn1ncc2c([nH]c3ccccc32)c1=O)N1CCCCC1	0	1	-1	-2	-8	3.2	5462
COc1cccc(C(=O)NCCNC(=O)c2cnccn2)c1	-8	2	-1	-3	-6	2.4	4312

Some values from the list:
ugtP null kill, `Cn1c(CNC(=O)c2ccco2)nnc1SCC(=O)N1CCN(c2ccccc2)CC1` reads 0
RN4220 kill, `O=C(OCC(=O)c1ccc[nH]1)c1cncc(Br)c1` reads 0.8

Carrying on.
SMILES	BJeLR viability	ugtP null kill	Mtb hypoxia rep	Mtb hypoxia rep growth	PrP 5UTR inh	RN4220 kill	Autofluor counter
C=CCn1c(C)cc(-c2csc(NCC)n2)c1C	7	2	13	-4	-38	15	2925
CC1CCCC(O)CCCCCc2cc(O)cc(O)c2C(=O)O1 (stereo not given)	nt	-5&-14	-2&2	-4&-6	nt	7.2&6.9	nt
COCc1ccc(C(=O)N2CCCC(C(=O)c3ccc(SC)cc3)C2)o1 (stereo not given)	-3	-7	-2	-5	-3	-2.0	4523
COC(=O)c1ccc(CSc2nncn2C)cc1	-12	1	3	-1	-1	4.4	11019
Cc1cc(OCC(=O)N(C)c2c(N)n(Cc3ccccc3)c(=O)[nH]c2=O)c(C(C)C)cc1Cl	6	9	-2	-4	-16	5.5	5116
COc1ccc(N2CCN(CC(=O)NC(C)c3ccccc3)CC2)cc1 (stereo not given)	17	2	-7	-2	0	2.3	3479
CCSc1nnc(NC(=O)C2CSC3(C)CCC(=O)N23)s1 (stereo not given)	nt	-1	-6	-4	4	2.4	nt
CCN(c1ccc(C)cc1)S(=O)(=O)c1nnc(NC(=O)c2ccco2)s1	8	-7	-4	3	5	9.4	6308
O=C(NCc1ccccn1)c1cccc(NS(=O)(=O)c2ccccc2)c1	3	2	7	0	-21	1.9	nt
COc1ccc(-c2nc3ccc(C(=O)NCCCN4CCOCC4)cc3nc2-c2ccc(OC)cc2)cc1	-1	4	-3	12	-24	0.4	5392
CC(/C=C/c1ccccc1)=NNC(=O)CSc1ccccn1	nt	-5	-6	7	nt	1.5	nt
COc1cccc(CNc2ccc(C)c(Cl)c2)c1	2	11	-1	19	-24	1.7	2498
COc1cccc(/C=N/Nc2nc(N3CCCC3)nc(N3CCCC3)n2)c1O	6	nt	nt	nt	-14	nt	8594
NS(=O)(=O)c1ccc(CNC(=O)C2CCCCC2)cc1	-5	7	2	7	-12	1.4	9685
CNc1nc(Nc2ccc(C)c(Cl)c2)c2cnn(C)c2n1	1	-9	-3	-8	11	2.8	3395
Cc1ccc(S(=O)(=O)N2CCCNCC2)cc1	-3	5	10	7	-19	3.6	3635
O=C(CSc1nc(=O)n(CCN2CCOCC2)c2c1CCCC2)Nc1ccc([N+](=O)[O-])cc1	0	1	-7	7	-7	-1.8	5056
Nc1c(S(=O)(=O)c2cccs2)c2nc3ccccc3nc2n1Cc1ccc2c(c1)OCO2	-2	-7	9	14	-24	4.4	5245
CC(=O)Oc1ccc(C(=O)Nc2cccc3c2CCCC3)cc1	5	0	20	9	-4	3.0	3194
C/C(=N\NC(N)=S)c1ccc2c(c1)OCCO2	-6	nt	nt	nt	-3	nt	6730
CCOc1c(Br)cc(/C=C(\C#N)C(=O)NC2CC2)cc1OC	-14	-2	4	6	-8	0.5	5423
Cc1c(C(=O)N2CCCCCC2)c(S(=O)(=O)Nc2cccc(F)c2)c(C)n1C	-8	5	-4	-3	-7	2.1	5337
CCCC1=C(C(=O)OCC)C(c2cccnc2)n2nc(C)nc2N1 (stereo not given)	6	9	17	3	-7	3.9	3892
COC(=O)c1ccccc1N(Cc1ccccc1)S(C)(=O)=O	2	-6	21	8	-19	-6.4	3235
O=C(CCCN1C(=O)/C(=C\c2cccs2)SC1=S)Nc1ccccn1	-1	-15	3	10	-11	4.8	2835
CCOC(=O)COc1c(OC)cc(Cl)cc1C1Nc2ccccc2C(=O)N1c1ccccc1 (stereo not given)	2	-4	6	8	-26	1.4	4374
O=C(COC(=O)c1ccc(O)cc1O)NC(=O)NCc1ccccc1	nt	-4	15	9	-8	11	3719
O=C(NCCN1CCOCC1)c1ccc2c(c1)N(Cc1ccc(Cl)cc1)C(=O)CS2	-3	0	-1	-3	-27	-0.4	3645
O=C(Nc1ccccc1)c1cn2ccccc2n1	7	4	5	-7	31	4.3	3738
Cc1ccc(C)c(NC(=S)NC(NC(=O)OCc2ccccc2)C(Cl)(Cl)Cl)c1 (stereo not given)	13	-7	9	0	-6	-11	2051
COCCCNC(=O)c1ccc(CNS(=O)(=O)c2ccc(NC(C)=O)cc2)cc1	nt	11	nt	nt	2	6.1	3029
COc1cc2c(C(=O)N(C)c3cc(Cl)ccc3OC)cn(C)c(=O)c2cc1OC	-4	18	4	-3	-38	-0.2	3630
c1ccc(-c2onc3cc4c(cc23)OCCO4)cc1	9	-7	10	7	-54	5.2	2940
COCCn1c(=O)c2c(nc3n2CCCN3CCc2ccccc2)n(C)c1=O	3	5	15	8	3	2.6	3020
COCCNC(=O)/C(C#N)=C/c1ccc2c(c1)OCO2	-1	14	0	2	-1	7.1	2408
COc1ccc(S(=O)(=O)Nc2cc3c4c(oc3c3ccccc23)CC(C)(C)CC4=O)cc1	-4	5	11	1	-17	7.7	?
Cc1ccc(S(=O)(=O)NC(CC(=O)NCc2ccco2)c2ccco2)cc1 (stereo not given)	2	-1	nt	nt	-30	6.0	2595
O=C(NCc1ccccc1)NC1(C(=O)N2CCN(c3ncccn3)CC2)CCCCC1	-2	3	-4	-6	-9	-2.5	4767
Cc1ccc(NC(=O)CCC(=O)NNC(=O)Cc2ccccc2)cc1C	5	-10	-7	9	-14	-5.3	12999
NC1=NCC(Cc2ccccc2)N1CC1CCCCC1 (stereo not given)	nt	0	-5	10	nt	4.9	nt

Three of the compounds above, as a markdown table:
| SMILES | BJeLR viability | ugtP null kill | Mtb hypoxia rep | Mtb hypoxia rep growth | PrP 5UTR inh | RN4220 kill | Autofluor counter |
| --- | --- | --- | --- | --- | --- | --- | --- |
| Cc1ccc(S(=O)(=O)NC(CC(=O)NCc2ccco2)c2ccco2)cc1 (stereo not given) | 2 | -1 | nt | nt | -30 | 6.0 | 2595 |
| O=C(NCc1ccccc1)NC1(C(=O)N2CCN(c3ncccn3)CC2)CCCCC1 | -2 | 3 | -4 | -6 | -9 | -2.5 | 4767 |
| Cc1ccc(NC(=O)CCC(=O)NNC(=O)Cc2ccccc2)cc1C | 5 | -10 | -7 | 9 | -14 | -5.3 | 12999 |

(more compounds)
SMILES	BJeLR viability	ugtP null kill	Mtb hypoxia rep	Mtb hypoxia rep growth	PrP 5UTR inh	RN4220 kill	Autofluor counter
Cc1cccnc1	nt	2	11	12	-16	1.9	5060
CC(C)CNC(=O)C1CCN(S(=O)(=O)c2ccc(-n3cnnn3)cc2)CC1	-2	0	18	7	-16	4.4	6246
N#Cc1cc(Cl)c(NCC2CCCO2)cc1C#N (stereo not given)	4	-2	3	19	-11	-0.8	3889
CCCCOC(=O)Nc1nc(CC(=O)OCC)cs1	8	10	6	2	-18	2.5	16057
CC(C(O)c1ccccc1)N(C)C(=O)CCc1ccccc1 (stereo not given)	nt	-13	8	4	nt	0.8	nt
Cc1ccc(C(=O)CC(SCC(=O)O)c2ccc([N+](=O)[O-])cc2)cc1 (stereo not given)	8	17	21	25	-8	26	2514
CC1(C)CC(NC(=O)Nc2ccc([N+](=O)[O-])cc2)CC(C)(C)N1	9	3	8	-2	-4	4.0	3684
